# Screening results from PubChem.
# Six1-Eya2 blk: Six1/Eya2 interaction inhibition; AlphaScreen GST-Six1/His-Eya2 binding, biochemical; active compounds read low; control for the full effect not named in the record; activity change, % (concentration not given with the values); actives 0.56% (n = 360,000); AID 651725; in the data active = activity change below about -65%; inconclusive = about -30% to -65%; inactive = above about -30%; also: % is scaled to controls: 0 for no effect and ±100 for the full control effect
#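 GST-Six1 + His-Eya2 (5X stock: 250/500 nM); Tris pH 8.0, 300 mM NaCl, 0.05% BSA, 0.02% Tween 20; GSH donor/Ni acceptor beads; 1 h 37 °C dark; AlphaScreen readout.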
# TRPML1 inh: blocks the human TRPML1 channel | Q9GZU1 | TRPML1-inducible cells, Ca2+ dye fluorescence, FDSS; active compounds read low; inhibition of EC80 agonist-evoked calcium signal | activity change, negative = inhibition, % (no concentration beside the values) | actives 0.02% (n = 390,000); in the data active means activity change below about -50%; inconclusive means about -30% to -50%; inactive means above about -30%;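 also: stimulus is agonist 54-4 at its EC80 concentration; % is scaled to controls: 0 for no effect and ±100 for the full control effect; compound concentration not given in the record; the text of the record puts the active cut at -80%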
# Target sequence (Q9GZU1 whole entry, looked up): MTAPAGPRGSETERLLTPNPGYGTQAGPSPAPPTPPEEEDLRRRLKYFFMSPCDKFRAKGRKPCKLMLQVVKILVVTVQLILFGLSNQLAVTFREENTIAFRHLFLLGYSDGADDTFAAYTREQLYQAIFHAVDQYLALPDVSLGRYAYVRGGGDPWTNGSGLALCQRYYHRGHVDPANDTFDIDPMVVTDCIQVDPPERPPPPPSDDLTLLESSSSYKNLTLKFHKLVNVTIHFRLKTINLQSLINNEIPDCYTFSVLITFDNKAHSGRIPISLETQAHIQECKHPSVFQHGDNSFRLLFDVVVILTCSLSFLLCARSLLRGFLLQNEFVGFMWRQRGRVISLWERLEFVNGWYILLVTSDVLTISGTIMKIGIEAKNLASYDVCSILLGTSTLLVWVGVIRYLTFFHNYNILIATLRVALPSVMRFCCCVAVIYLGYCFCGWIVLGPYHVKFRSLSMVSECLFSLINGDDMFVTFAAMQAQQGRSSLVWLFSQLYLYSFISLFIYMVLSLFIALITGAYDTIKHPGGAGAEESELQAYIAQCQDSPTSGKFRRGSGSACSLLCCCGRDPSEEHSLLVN
#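 TRPML1-DL cells, Tet-induced overnight (~16 h, 37 °C) at 1,500 cells/well, were loaded with Ca8 no-wash dye plus quencher for 45-90 min at room temperature. Compounds were pinned during FDSS kinetic reading; agonist 54-4 at EC80 (4 uM final) then added.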
# D2 PAM: human D2 receptor positive allosteric modulation | actives 0.23% (n = 360,000) | P14416 | DiscoveRx D2 beta-arrestin cells, luminescence, 90 min; 100% = 57 uM dopamine signal | potentiation, % (no concentration beside the values) | AID 624464; active = potentiation of 50% or more; inconclusive = 30% to 50%; inactive = 30% or less;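 also: compound concentration not given in the record; tested on top of an EC20 dose of dopamine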
# Target sequence (P14416 whole entry, looked up): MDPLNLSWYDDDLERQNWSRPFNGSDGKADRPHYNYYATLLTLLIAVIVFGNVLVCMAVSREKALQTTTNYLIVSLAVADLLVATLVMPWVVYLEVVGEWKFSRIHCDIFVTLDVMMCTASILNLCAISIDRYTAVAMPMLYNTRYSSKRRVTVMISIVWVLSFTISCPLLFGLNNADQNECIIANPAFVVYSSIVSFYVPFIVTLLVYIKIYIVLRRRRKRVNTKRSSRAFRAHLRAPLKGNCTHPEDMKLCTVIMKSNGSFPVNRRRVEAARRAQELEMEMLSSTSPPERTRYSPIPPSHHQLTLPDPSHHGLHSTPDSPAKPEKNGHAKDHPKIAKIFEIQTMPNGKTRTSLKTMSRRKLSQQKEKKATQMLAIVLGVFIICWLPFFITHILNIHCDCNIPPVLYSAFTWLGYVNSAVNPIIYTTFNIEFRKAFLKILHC
#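 PathHunter D2 cells, attached overnight at 37 deg C, received compound in DMSO plus dopamine at EC20 (50 nM final) for 90 min at 37 deg C. Beta-arrestin recruitment was read as luminescence after 1 h with detection reagent at ambient temperature.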
# PINK1 expr mod: changes PINK1 expression | PINK1 immunofluorescence, high-content cytometry, 24 h | Potency, µM (doses to about 76.6 µM), without a hit: at the highest dose activation (PINK1 increase), hits mostly activators | actives 0.2% (n = 410,000); active = well fitted activation curve with a large enough effect; inconclusive = small, poorly fitted or top-dose-only effect; inactive = flat fitted curve, though single readings scatter; cell line not stated here;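 also: potency is read from the fitted curve at half-maximal effect; % of control where 0% means no effect; nearly all actives have a fitted effect of over 65% in size; a mitochondrial uncoupler was the plate control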
#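 Compound titrations (5 concentrations, 24 h) on a stable cell line; DMSO and CCCP controls. Endpoint: fixed-cell PINK1 immunofluorescence with mitochondrial, cell and nuclear markers, scanned by microplate cytometer.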
# D2 ag: activates the human D2 dopamine receptor | DiscoveRx PathHunter D2 beta-arrestin, luminescence, 90 min; 100% = 57 uM dopamine signal | activation, % (no concentration beside the values) | actives 0.084% (n = 360,000) | AID 624465; in the data active = activation above about 40%; inconclusive = about 15% to 40%; inactive = below about 15%; also: compound concentration not given in the record; the text of the record calls up to 30% inactive
#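 Agonist mode: compounds alone added to overnight-plated D2 PathHunter cells for 90 min at 37 C, with 57 uM final dopamine (EC100) defining full response. Beta-arrestin recruitment detected by chemiluminescent reagent, read after 1 h at ambient temperature.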
# TRPML1 agonist: human mucolipin-1 channel agonism; TRPML1-expressing cells, Ca2+ dye fluorescence, FDSS; host cell line not named in the record; reference of the full effect not given here; actives 0.12% (n = 410,000); activation, % (no concentration beside the values); in the data active = activation above about 50%; inconclusive = about 30% to 50%; inactive = below about 30%; also: 0% is about no effect; the text of the record puts the active cut at 80%
#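 Cells: TRPML1-DL, 1X Tet inducer, ~16 h at 37 degrees C/5% CO2. Dye: ABD Ca8 no-wash + quencher, 45-90 min RT. Read: 10 s baseline, compound add, 110 s agonist phase; 54-4 EC80 (4uM final), 110 s antagonist phase.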
# * = called active by the depositor; ? = inconclusive; / = no result given; & = joins results of further samples; [ ] = remark or other dose. An excerpt; count on the stated rates, not on these rows.
SMILES,Six1-Eya2 blk,TRPML1 inh,D2 PAM,PINK1 expr mod,D2 ag,TRPML1 agonist
CC(C)(C)n1nnnc1C(c1cc2ccccc2o1)N1CCC2(CC1)C(=O)NCN2c1ccccc1 (stereo not given),-18,/,-9,0.0%,4.5,-0.4
Cn1cccc1CN1CCN(C(=O)COc2ccccc2)CC1,4,20,-27,0.2%,0.3,0.5
COC(=O)C1=C(c2ccc(OC)c(OC)c2)C[C@@H]2CC[C@H]1N2C(=O)NCc1ccc(F)cc1,-1,5,-2,-0.3%,-1.1,-0.2
CCCCNC(C)Cc1ccccc1 (stereo not given),3,7,-18,-0.6%,2.8,-0.5
CCn1c(NN=O)nc2ccccc21,?,-8,-18,0.8%,-7.5,0.9
O=C(c1c[nH]c2ccc(S(=O)(=O)N3CCC4(CC3)OCCO4)cc2c1=O)N1CCC2(CC1)OCCO2,-7,-10,0,1.5%,-1.7,-0.1
C=CCOC(=O)C1=C(C)OC(N)=C(C#N)C12C(=O)N(CN1CCOCC1)c1ccccc12 (stereo not given),1,56,6,2.5%,6.6,-0.1
COc1ccc(-c2cc(=Nc3ccccc3)c3cc(C)ccc3o2)cc1,-29,-6,-6,3.0%,1.0,-1.3
CN1C(=O)NC(=O)/C(=C\C=C\c2ccccc2[N+](=O)[O-])C1=O,-3,-14,0,-1.3%,-6.3,0.2
CNP1(NC)=Nc2nn(-c3ccccc3)c(N)c2C(c2ccccc2)=N1,-3,-18,-7,2.4%[38.3 µM],-1.3,0.3
CC(CN1CCOCC1)C(C#N)(c1ccccc1)c1ccccc1 (stereo not given),15,-2,-4,0.7%,-1.2,0.3
COc1ccc(C(=O)C2CN(C)CC2C(=O)c2ccc(OC)cc2)cc1 (stereo not given),4,21,-24,0.3%,-2.8,-0.2
CN1CC[C@]23c4c5ccc(OC6OC(C(=O)O)[C@@H](O)C(O)[C@H]6O)c4OC2C(O)C=CC3[C@H]1C5 (stereo not given in full),6,1,-14,0.3%,2.7,0.5
O=c1c2ccccc2nc(CBr)n1-c1ccc(Cl)cc1,-7,21,-7,-0.1%,-0.5,-0.7
OC(CNCCc1c[nH]c2ccccc12)c1ccccc1 (stereo not given),-5,-26,-14,1.8%,-4.1,0.0
CC(Cc1ccccc1)NC(=O)c1ccc(N)cc1 (stereo not given),1,-1,-4,-0.1%,-3.5,0.0
COC(=O)C1=C(c2ccc3ccccc3c2)C[C@@H]2CC[C@H]1N2C(=O)NCc1ccc(C(F)(F)F)cc1,3,26,-14,0.6%,-1.4,2.6
CN(C)C(=O)Oc1ccc(-c2cn3cc(C(F)(F)F)ccc3n2)cc1,7,25,-6,1.7%,-0.2,-0.5
O=Cc1cn(CCCOc2ccccc2)c2ccccc12,16,18,-28,0.2%,0.6,1.6
Cc1cc2ccccn2c1C(C[N+](=O)[O-])c1c(F)cccc1Cl (stereo not given),4,-11,0,4.0%,-6.3,1.3
O=C1NC(=O)N(c2cccc(F)c2)C(=O)/C1=C/c1ccc(N2CCOCC2)cc1,-3,15,-4,0.0%,-12,0.0
c1ccc2c3c(ccc2c1)OCC1CONC31 (stereo not given),9,-7,-3,1.6%,4.3,0.3
CC1(C)CC(=O)C(C=NCCN2CCN(C(=O)Cc3ccc(F)cc3)CC2)=C(O)C1,4,-11,2,1.0%[38.3 µM],0.6,2.3
CN1C(=O)c2ccccc2Sc2ccc(C(=O)N3CCC4(CC3)OCCO4)cc21,-1,-1,-4,-0.7%[38.3 µM],-3.4,3.0
c1ccc(C2CN3CCC2CC3)cc1 (stereo not given),6,-9,-5,1.4%,-2.3,-0.2
COc1ccc(CNC(=O)CCC(=O)N2C[C@H]3C[C@H](C2)c2cccc(=O)n2C3)cc1,-4,/,1,1.2%,-4.0,/
CN(C)C(Cc1ccc(Cl)cc1)C(=O)c1ccccc1 (stereo not given),2,-10,-18,1.3%,-1.4,1.5
CCOC(=O)C1CCN(/C=C2/C(=O)NC(=O)N(c3ccc(OCC)cc3)C2=O)CC1,2,-6,3,/,-0.1,-0.7
COCCNC(=O)N1[C@H]2CC[C@@H]1C(C(=O)OC)=C(c1ccc(OC)c(OC)c1)C2,7,-6,1,0.7%,-0.9,0.4
CCN(CC)c1nc2c(C)cccn2c(=O)c1C=C1C(=O)NC(=O)NC1=O,10,-1,-3,3.3%,-4.2,2.4

# Random excerpt: 7 compounds from above
SMILES,Six1-Eya2 blk,TRPML1 inh,D2 PAM,PINK1 expr mod,D2 ag,TRPML1 agonist
CCOC(=O)C1CCN(/C=C2/C(=O)NC(=O)N(c3ccc(OCC)cc3)C2=O)CC1,2,-6,3,/,-0.1,-0.7
COCCNC(=O)N1[C@H]2CC[C@@H]1C(C(=O)OC)=C(c1ccc(OC)c(OC)c1)C2,7,-6,1,0.7%,-0.9,0.4
COc1ccc(CNC(=O)CCC(=O)N2C[C@H]3C[C@H](C2)c2cccc(=O)n2C3)cc1,-4,/,1,1.2%,-4.0,/
CCN(CC)c1nc2c(C)cccn2c(=O)c1C=C1C(=O)NC(=O)NC1=O,10,-1,-3,3.3%,-4.2,2.4
O=C1NC(=O)N(c2cccc(F)c2)C(=O)/C1=C/c1ccc(N2CCOCC2)cc1,-3,15,-4,0.0%,-12,0.0
CN(C)C(Cc1ccc(Cl)cc1)C(=O)c1ccccc1 (stereo not given),2,-10,-18,1.3%,-1.4,1.5
CC1(C)CC(=O)C(C=NCCN2CCN(C(=O)Cc3ccc(F)cc3)CC2)=C(O)C1,4,-11,2,1.0%[38.3 µM],0.6,2.3

# Next records:
SMILES,Six1-Eya2 blk,TRPML1 inh,D2 PAM,PINK1 expr mod,D2 ag,TRPML1 agonist
COC(=O)C1=C(c2ccc3ccccc3c2)C[C@@H]2CC[C@H]1N2C(=O)N1CCOCC1,-10,-4,-11,1.9%,-1.7,0.7
CCN1C[C@]2(COC)CC[C@H](O)[C@]34C1[C@](O)([C@@H](OC)[C@H]23)[C@@]1(O)C[C@H](OC)[C@H]2C[C@@H]4[C@@H]1[C@H]2OC,5,7,-9,1.4%,2.1,-0.7
CP(=O)(O)CCCN,6,36,7,1.8%[38.3 µM],-0.8,-0.1
O=C(Nc1ccccc1)c1c(O)[nH]c(=S)[nH]c1=O,17,6,-13,0.3%,-1.2,-0.9
Cc1ccc(NC(=O)CN2C(=O)CN=C(c3ccccc3)c3ccccc32)cc1Cl,/,-22,/,-1.0%,/,2.4
C=CCN1CC[C@]23c4c5ccc(O)c4OC2C(O)CC[C@@]3(O)[C@H]1C5 (stereo not given in full),7,0,-21,1.8%,4.0,-0.6
CN1C(CC(O)c2ccccc2)CCCC1CC(O)c1ccccc1 (stereo not given),0,21,-3,-0.2%,-2.0,1.0
Cc1ccc(C2(O)CN3CCC2CC3)cc1 (stereo not given),0,1,-2,-2.1%,-0.7,-0.4
O=c1[nH]c(O)c(C=Nc2ccc(F)c(Cl)c2)c(=O)[nH]1,-3,-10,-4,-1.4%,-2.2,1.5
COC(=O)C1=C(c2ccc(C(C)=O)cc2)C[C@@H]2CC[C@H]1N2C(=O)NC(C)C,3,-4,-3,2.2%,1.1,0.0
C=CCn1c(O)c(C(C)=Nc2cccc(C(F)(F)F)c2)c(=O)[nH]c1=O,5,-2,-5,-0.2%,-5.0,-0.1
Oc1ccccc1CN(CCc1ccccc1)Cc1ccccc1,60,-6,2,19%,0.9,2.2
FC(F)(F)c1ccc(CN2CCNCC2)cc1,13,9,-16,1.2%,-5.9,0.8
Cc1ccc(C2(O)CCN3CCCCC32)cc1 (stereo not given),3,9,2,-0.9%,-0.9,3.9
Cc1ccc(Cn2nnnc2CN2CCC(n3nnc4ccccc43)CC2)cc1,-2,9,-41,-2.5%,-1.4,-0.1
C[C@]12CCC3C(CC[C@H]4CC(=O)CC[C@]34C)C1CCC2=O (stereo not given in full),1,9,-3,-1.9%,-0.8,-0.2
c1cncc(CNC2CCCC2)c1,3,0,-14,0.9%,3.0,0.5
O=C(c1ccccc1)c1cn(CC(=O)N2CCOCC2)c2ccccc12,8,18,-4,-0.2%,-2.1,-1.0
COC(=O)C1=C(c2c(C)noc2C)C[C@@H]2CC[C@H]1N2C(=O)NC1CC1,2,-4,-9,-0.4%,-3.3,-0.8
Cc1ccc(-n2c(O)c(/C=N/NC(=O)c3ccncc3)c(=O)[nH]c2=O)cc1,?,2,-3,2.7%,9.9,0.5
COC(=O)C(Cc1ccc(N(CCCl)CCCl)cc1)N=Cc1ccccc1O (stereo not given),-5,-13,-2,-1.9%,-2.3,0.2
CC(=O)OCC(=O)[C@H]1CC[C@H]2[C@@H]3CC[C@H]4C[C@H](O)CC[C@]4(C)[C@H]3C(=O)C[C@]12C,-1,-7,-30,1.6%,-9.4,0.3
COc1cccc(NP(=O)(Oc2ccccc2Cl)Oc2ccccc2Cl)c1,4,20,-4,5.2%,-1.0,0.4
CC(C(=O)Nc1ccc(Br)cc1C(=O)c1ccccc1)N1CCCCC1 (stereo not given),2,-7,-30,/,-4.8,0.6
COC(=O)C1=C(c2ccc(-c3ccccc3)c(F)c2)C[C@@H]2CC[C@H]1N2C(=O)NC(C)C,1,16,-13,?,-2.3,1.2
Cc1nn(C)cc1/C=C1/CC2C3CC=C4CC(O)CCC4(C)C3CCC2(C)C1=O (stereo not given),-5,10,-5,0.3%,-1.1,-0.7
COc1ccc(C2C(C(=O)N3CCC4(CC3)OCCO4)CC(=O)N2c2ccc(OC)cc2)cc1 (stereo not given),0,25,-16,0.7%,-1.6,-0.1
COc1cc(CN2CCN(C(=O)COc3ccccc3)CC2)cc(OC)c1OC,28,-2,-15,1.8%,0.0,-1.0
CCCCCCn1c(N)c(C(=O)NCCN2CCOCC2)c2nc3ccccc3nc21,20,59,3,-2.9%,-3.3,-1.3
CS(=O)(=O)c1ccc(C2=C(CNC(=O)c3ccncc3)[C@H]3CC[C@@H](C2)N3Cc2ccccc2)cc1,-3,-4,-4,-0.3%,-3.9,-0.4
O=C1CN=C(c2ccccc2Cl)c2cc(Cl)ccc2N1Cc1cccc(Cl)c1,/,-13,/,18%,/,3.6
CCOC(=O)N1CCC(NC(=O)CCc2nc(C3=CCN(C)CC3)no2)CC1,25&3,-5&18,-8&0,-4.0%&0.6%,-5.6&-1.6,2.9&0.6
COC(=O)C1=C(c2ccc(F)cc2F)C[C@@H]2CC[C@H]1N2C(=O)NCc1ccco1,-2,-12,-10,0.6%,1.6,0.1
O=C(OCCCCN1C(=O)c2ccccc2C1=O)c1ccc(Br)o1,13,10,0,?,0.6,5.6
CCOC(=O)c1ccc2c(c1)n(Cc1ccccc1)c(C)[n+]2CC,-2,-18,-7,-1.1%,-1.4,-0.3
Cc1nc2ccccc2c(=O)n1-c1ccc(Cl)c(Cl)c1,1,22,5,0.9%,8.8,-0.8
Cc1cccc(CCNCc2cc3ccc(C)cc3[nH]c2=O)c1,11,5,-1,7.2%,0.0,0.6
COC(=O)c1ccc(CN2CCSC2=N)cc1,9,-14,-1,0.8%,-2.8,0.8
